Screens from PubChem.
Ba CapD inh: Bacillus anthracis CapD inhibitors, primary screen, biochemical, fluorescence intensity; AID 492967, 2010; z-score (test concentration not listed); 140,000 compounds, 0.23% hits; purified CapD enzyme, fluorescence intensity read-out; stronger effect = lower value; some hits fall short of the stated cut;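 active means z-score under -4 in either of two replicates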;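 further: stock transfer was 100 nL into about 40 µL; score is relative to mean and spread of the plate; one replicate is shown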
AID504770: growth inhibition of E. coli YBA685, primary screen, V. cholerae RctB inhibitors; E. coli YBA685 rctB-dependent plasmid, OD600 growth, 3 h; stronger effect = lower value; z-score (no concentration beside the values); 130,000 compounds, 0.27% hits;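 active means z-score under -2 on both plates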;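 further: wells of about 30 µL received 100 nL stock; score is relative to mean and SD of the test wells; the first replicate is given; strong numbers were not always called active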
An asterisk follows results filed as active; · = no result given.

SMILES	Ba CapD inh	AID504770
O=C1C=C(Nc2ccccc2)CC(c2ccccc2)C1 (centres undefined)	-0.5	-0.5
Cc1nc(NC(=O)c2oc3ccccc3c2C)sc1C(=O)N(C)C	2.18	0
Cc1ccc(CNC(=O)c2ccc3nc(-c4ccccc4)c(-c4ccccc4)nc3c2)cc1	-0.215	·
O=C(O)/C=C\C(=O)N1CCN(c2nc(-c3ccccc3)ns2)CC1	0.67	-0.6
CCS(=O)(=O)Nc1cc(C(C)(C)C)on1	-0.86	-0.95
O=C(Nc1ccccc1)c1ccc(=O)n(Cc2cccc(C(F)(F)F)c2)c1	0.4	·
COCc1c(C(=O)OCc2cc(Cl)cc3c2OCOC3)oc2ccccc12	·	0.1
N#C/C(=C\N1CCC(n2cccc2)CC1)C(=O)c1ccccc1	-0.53	-0.7
CSC1=C(C#N)C2(CCCC2)C(C#N)C(=O)N1 (centres undefined)	-0.98	-0.05
CCN(CC)C(=O)Cn1cc(C(=O)C(C)C)c2ccccc21	·	-0.25

Among those listed so far, these contain a cyano group:
SMILES	Ba CapD inh	AID504770
N#C/C(=C\N1CCC(n2cccc2)CC1)C(=O)c1ccccc1	-0.53	-0.7
CSC1=C(C#N)C2(CCCC2)C(C#N)C(=O)N1 (centres undefined)	-0.98	-0.05

More structures
SMILES	Ba CapD inh	AID504770
FC(F)(F)c1cc(Sc2ccccc2)nc(-c2ccccn2)n1	0.085	0.75
CC(C)C(=O)Nc1ccc(N)cc1	·	0.45
NCC(=O)c1ccc(Br)cc1	-0.3	·
COC(=O)c1c(NC(=O)CSc2nnc3cc(C)c4ccccc4n23)sc2c1CCC(C)C2 (centres undefined)	-0.215	·
O=C(Nc1ccccc1C(=O)NN=Cc1c(O)ccc2ccccc12)c1cccs1	-1.55	·
CC1=C(C(=O)OCc2ccccc2)C(c2ccc(OCc3ccccc3)cc2)NC(=O)N1C (centres undefined)	-0.585	·
CCn1c(-c2cccs2)c(CNC(=O)NCc2ccccc2)c2ccccc21	-1.77	1.4
CCN(C(=O)CCn1c(=O)sc2ccccc21)c1cccc(C)c1	·	-0.3
O=C(/C=C/c1cccc(F)c1)Nc1ccc2c(c1)OCO2	-1.25	-0.05
O=C(Nc1ccc(S(=O)(=O)Nc2ncccn2)cc1)C1=NN(c2ccccc2)C(=O)CC1	·	0.6
Cc1ccc(-c2cc(C(=O)OCC(=O)Nc3ccc(S(N)(=O)=O)cc3)c3ccccc3n2)cc1	7.14	-1
CCC(=O)c1ccc(OCC(=O)NCCCN2CCCC2=O)cc1	·	-1.15
CN(C)P1(=S)OCCCO1	·	1.6
CC(=O)N1CCC(N(C(=O)COc2ccccc2C(=O)NC2CCCCC2)C2CC2)CC1	-0.43	·
Cc1ccc(C2/C(=C(\O)c3ccc(Br)cc3)C(=O)C(=O)N2CCCN(C)C)cc1 (centres undefined)	-0.31	-0.15
CCCNC(=O)c1cc(-c2cccnc2)nc2ccccc12	1.34	-0.7
Cc1ccc(S(=O)(=O)N/N=C2/CSCC2NC(=O)c2ccccc2)cc1 (centres undefined)	·	-0.4
C=C(C)Cn1c(SCCC(=O)OC)nc2sc3c(c2c1=O)CC(C)(C)OC3	0.715	·
COC(=O)c1cc2ccc3c(c2oc1=O)CN(c1ccccc1)CO3	11.7	1.2
Cc1cccc(-n2c(Sc3nnnn3-c3ccccc3)nc3ccccc3c2=O)c1C	·	0.05
C=Cn1c(C)c(C(C#N)=C(C#N)C#N)c2c1CCCC2	·	1.75
CSc1cccc(NC(=O)CSc2nnc(COc3ccccc3)o2)c1	·	1.3
Cc1cc(/C=N/NC(=O)c2ccccc2Br)c(C)n1-c1cccc(C(F)(F)F)c1	-0.88	·
CCSc1sc(CC)cc1C1C(C(=O)Nc2ccc(C)cn2)=C(C)NC2=C1C(=O)CC(C)(C)C2 (centres undefined)	3.25	·
CCOC(=O)c1ccc(N2C(=O)Cc3ccccc3C2=O)cc1	0.085	1.15
O=C(CN1CCC(C(=O)O)CC1)Nc1ccccc1Oc1ccccc1	0.19	-0.4
COC(=O)C(C(=O)OC)=C(SC)SC	-0.655	-0.15
O=C(OC1CCOC1=O)c1c2c(nc3ccccc13)CCCCC2 (centres undefined)	·	0.65
COc1cc(/C=C/C(=O)N2CCC(c3nc4ccccc4o3)CC2)cc2c1OCCO2	·	-0.7
COc1ccc(NC(=O)NCCCN2CCCc3ccccc32)c(OC)c1	0.09	0.3
O=S(=O)(NN1CCOCC1)c1cc(S(=O)(=O)c2ccccc2)cs1	-0.1	-0.9
CCN(Cc1ccccc1)C(=O)c1cc2c(s1)-c1ccc(Cl)cc1SC2	8.74	0.6
CCOC(=O)C1CCN(C(=O)c2ccc3c(=O)n4nc(Nc5ccccc5OC)sc4nc3c2)CC1	-1.22	1.2
CC1=C(C(=O)Nc2ccc(C(=O)NCc3cccnc3)cc2)SCCO1	-1.02	1.4
Cc1noc2nc(C(F)(F)F)[nH]c(=O)c12	0.43	-0.05
COc1cc(-n2c(=S)[nH]c3ccccc3c2=O)c(Cl)cc1Cl	-0.145	·
O=[N+]([O-])c1ccc(C2Nc3ccccc3O2)s1 (centres undefined)	-1.94	·
CC1(c2ccc([N+](=O)[O-])c(CS(=O)(=O)c3ccc(Cl)cc3)c2)OCCO1	0.25	·
CCOCCCNC(=O)c1ccc2c(c1)nc(C)n2-c1cc(OC)c(OC)c(OC)c1	-0.2	·
N#Cc1ccc(NC(=O)CONC2=NCCCCC2)cc1	·	-0.2
COCC(=O)NCc1nc2ccccc2[nH]1	-0.72	2.45
COc1cccc(C(O)c2nccn2C)c1OC (centres undefined)	-0.765	-2.25
OC(CN1CCOCC1)Cn1c2c(c3ccccc31)CCCC2 (centres undefined)	0.3	0.85
COc1ccc(-c2csc(=Nc3cc(C(=O)O)ccc3C)o2)cc1	-0.07	-0.65
CSC1=NCCN1C(=O)c1cccc(C)c1	·	-0.4
COc1cccc(C2NC(=S)NC(C)=C2C(=O)Nc2cccc(C)c2C)c1OC (centres undefined)	-0.095	·
O=C(CCC(=O)N1CCC(N(C2CC2)S(=O)(=O)c2cccc(C(F)(F)F)c2)CC1)NCc1cccc(C(F)(F)F)c1	0.075	·
COC(=O)C1=C(C)N=c2s/c(=C\c3cc(OC)c(OC)cc3[N+](=O)[O-])c(=O)n2C1c1ccccc1 (centres undefined)	-0.29	·
COC(=O)c1sccc1-n1cccc1C(=O)C(=O)N1CC(C)OC(C)C1 (centres undefined)	-0.69	·
O=C(CN1C(=O)c2ccccc2C1=O)N1CCCC1	0.235	-1.2
Further compounds follow.
SMILES	Ba CapD inh	AID504770
COc1cc(C2=N/C(=C\c3coc4c(Cl)cc(Cl)cc4c3=O)C(=O)O2)cc(OC)c1OC	0.695	·
CC(NC(=O)c1cccnc1)C(=O)N1CCCCC1 (centres undefined)	0.075	-0.25
CC(C)(C)OC(=O)N/N=C/c1ccc(C(F)(F)F)cc1F	0.065	·
Cc1cc(C)c2c(N)nn(C)c2n1	-1.25	-1.65
CN(c1ncc(C(F)(F)F)cc1Cl)N1C(=O)c2cccc(O)c2C1=O	-0.645	·
OCCc1c[nH]c2ccc(OCc3ccccc3)cc12	·	-0.15
N#C/C(=C\NC(=O)c1ccccc1)C(=O)N1CCOCC1	·	0.75
NNC(=O)CNc1ccccc1	·	-0.3
O=C(NCC(=O)N1CCCN(Cc2ccc(Cl)c(Cl)c2)CC1)c1cccnc1	-0.035	·
Cc1[nH]n(-c2ccccc2)c(=O)c1C=NC(C)C	·	0.35

6 entries from above, arranged by molar mass, descending:
SMILES	Ba CapD inh	AID504770
O=C(Nc1ccc(S(=O)(=O)Nc2ncccn2)cc1)C1=NN(c2ccccc2)C(=O)CC1	·	0.6
COc1ccc(NC(=O)NCCCN2CCCc3ccccc32)c(OC)c1	0.09	0.3
O=C(CN1CCC(C(=O)O)CC1)Nc1ccccc1Oc1ccccc1	0.19	-0.4
CCOC(=O)c1ccc(N2C(=O)Cc3ccccc3C2=O)cc1	0.085	1.15
Cc1[nH]n(-c2ccccc2)c(=O)c1C=NC(C)C	·	0.35
NNC(=O)CNc1ccccc1	·	-0.3

Additional structures:
SMILES	Ba CapD inh	AID504770
COC(=O)c1cc(COC(=O)CNC(=O)c2ccc(Br)cc2)oc1C	·	0.35
Cc1c(C(=O)NCc2ccco2)cc(-c2ccccc2)n1CCSCc1c(F)cccc1Cl	9.7	-0.65
CSc1nc2nc3c(cc2c(=O)n1-c1ccccc1)COC(C)(C)C3	3.38	·
C=CS(=O)(=O)C(C)CC(N)=O (centres undefined)	·	-0.55
COc1ccccc1CNC1CCCCC1C (centres undefined)	0.28	0.7
CC(C)C(C(C#N)C#N)C1C(=O)NC(=S)NC1=O (centres undefined)	·	-0.55
Nc1[nH]c(=S)sc1C(=O)Nc1nccs1	-5.56*	-0.85
COc1cccc(/C=N/O)c1O	0.73	-0.85
CN1CCN(c2ncc3c(=S)[nH]c(=S)[nH]c3n2)CC1	-0.505	-0.15
O=C(CN1CCN(c2ncnc3scc(-c4ccccc4)c23)CC1)Nc1ccc(Br)cc1	0.205	·
CCCCSc1ccc(NCCC(=O)c2ccco2)cc1	-0.265	-0.65
CN=c1scc(-c2cc(C)n(CCC(C)C)c2C)n1C	·	-0.1
c1ccc2[nH]c(C3CCCO3)nc2c1 (centres undefined)	0.14	-0.1
Cn1c(=O)c2c(nc(SCC(=O)NC(c3ccccc3)c3ccccc3)n2C)n(C)c1=O	-0.16	-0.6
CC(C)N(CC(=O)c1cccs1)Cc1ccccc1	·	1.45
CCN1CCN(c2ccc(Nc3nc(C)nc4cc(Cl)ccc34)cc2)CC1	0.065	·
Cc1nn(-c2ccccc2)c(C)c1NC(=S)NC(=O)c1cccs1	-0.21	0.3
COC(CNC(=O)Cn1ncc2ccsc2c1=O)OC	0.955	-0.8
O=C(Nc1ccc2c(c1)N(Cc1ccccc1)C(=O)c1ccccc1S2)NC1CC1	-0.405	0.25
CCN(C1=NS(=O)(=O)c2ccccc21)c1ccccc1	·	-0.35
CN(C)Cc1c(O)ccc2cc(-c3nc4ccccc4s3)c(=O)oc12	-1.23	-2.15
CC1CCN(CCNC(=O)c2ccc(NC(=O)C3CCCO3)cc2)CC1 (centres undefined)	0.23	0.7
Cc1nc(NN)nc(NCc2ccccc2)n1	·	-0.15
CN(C)c1ccc(/C=C/C2N(Cc3ccc(Cl)cc3)CCN2Cc2ccc(Cl)cc2)cc1	-0.075	·
CN(C)C(CC(=O)Nc1ccc(Nc2ccccc2)cc1)C(=O)O (centres undefined)	·	-0.15
C=CCNC(=O)c1cc(-c2ccc(OC)cc2)cs1	0.245	·
CCC(C)NC(=O)NCc1ccccc1F (centres undefined)	0.345	-1.1
COc1ccc(/C=C/C(=O)N2c3ccccc3Sc3ccc(C(F)(F)F)cc32)cc1OC	0.24	·
C=CCN(CC=C)C(=O)CN1C(=O)c2ccccc2C1=O	·	-0.15
O=C(O)CCc1ccc(-c2cccs2)o1	3.39	0.1
CCN(C1CCCCC1)S(=O)(=O)c1cccc(S(=O)(=O)N2CCCC2)c1	·	-0.6
CCc1cc(C(=O)O)no1	·	-0.8
Cn1cc(/C=C(\C(=O)O)C(C(=O)O)=C2CCCCC2)c2ccccc21	-0.225	1.4
O=[N+]([O-])c1ccc(C2Nc3ccc(Br)cc3C(c3ccccc3)O2)cc1 (centres undefined)	-0.07	·
CC(C)(C)Sc1ccccc1CN1CCN(S(=O)(=O)c2ccccc2Cl)CC1	-0.575	·
CC(C)C12CN3CC(C(C)C)(CN(C1)C3c1c[nH]c3ccccc13)C2=O (centres undefined)	-0.23	·
Cc1ccc(CCC(=O)Nc2ccc(C(C)C)cc2)o1	·	0
Cc1c(-c2nc3cc(Cl)ccc3n2Cc2ccccc2)cc(C#N)n1C	·	-0.3
Cc1c(C(=O)Nc2cc(-c3cccc(F)c3)no2)sc2nc3n(c(=O)c12)CCCCC3	0.89	0.95
COC(=O)C1C2C=CC3(CN(Cc4ccccc4)C(=O)C13)O2 (centres undefined)	-0.07	-1.3
O=C1COc2ccc(C(=O)c3ccccc3C(=O)NCc3ccccc3)cc2N1	-0.085	·
CCC(CC)C(=O)Nc1c2c(nn1-c1cccc(C)c1)CSC2	0.27	-0.9
CN1c2ccccc2C(C)(C)C12CCCC(=O)N2 (centres undefined)	-0.515	2.7
CN(C)c1cc(-c2nnc(SCc3cccc(C(F)(F)F)c3)n2C)nc(N(C)C)n1	36.4	·
O=C(CCCc1nc(-c2ccccc2)no1)N1CCOCC1	0.425	0.6
Cc1onc(-c2ccccc2)c1NC(=O)Nc1ccc(-n2ccc(C(F)(F)F)n2)cc1	-1.98	1.5
CCOc1cc(C2CC(=O)NC(SCC(=O)OCc3ccccc3)=C2C#N)ccc1O (centres undefined)	-0.195	·
CC(C)COc1ccc(C(=O)Nc2ccc(C(=O)NCC3(c4ccccc4)CC3)cc2)cc1	2.37	0.2
N=C1/C(=C/c2cccn2Cc2ccc(Cl)cc2)C(=O)N=C2SC=CN12	-0.59	0.8
COc1ccc(Cl)cc1NC(=O)COCC(=O)O	0.005	-0.3

A different layout for part of the listing above.
compound,Ba CapD inh,AID504770
O=C(CCCc1nc(-c2ccccc2)no1)N1CCOCC1,0.425,0.6
CN1c2ccccc2C(C)(C)C12CCCC(=O)N2 (centres undefined),-0.515,2.7
CCC(CC)C(=O)Nc1c2c(nn1-c1cccc(C)c1)CSC2,0.27,-0.9

Carrying on:
SMILES	Ba CapD inh	AID504770
COc1ccc(SCC(=O)c2cc(C)n(C3CC3)c2C)cc1	·	-1.9
CC(C)OC(=O)CSc1nnc(-c2ccc(O)cc2)n1-c1ccccc1	·	0.25
O=C(CCn1c(=S)[nH]c2ccccc2c1=O)N1CCc2ccccc2C1	0.25	0.05
O=C(ON=C1CCN(S(=O)(=O)c2ccccc2)CC1)c1cccs1	0.335	·
